Screens deposited in PubChem BioAssay by several laboratories.
Rce1 inhib: yeast Ras-converting enzyme inhibition; yeast membranes, quenched prenylated peptide cleavage fluorescence; 290,000 tested, 0.27% active; Q03530; calls only;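 active means fall in fluorescence gain of 50% or more versus controls, with final raw signal at or below 3038400; inconclusive means same 50% fall but final raw signal above 3038400; inactive means fall in fluorescence gain under 50%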;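 further: plate controls were neutral control wells for no effect and wells lacking membranes for full effect; tested at 10 µM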
Target sequence (Q03530 whole entry, looked up): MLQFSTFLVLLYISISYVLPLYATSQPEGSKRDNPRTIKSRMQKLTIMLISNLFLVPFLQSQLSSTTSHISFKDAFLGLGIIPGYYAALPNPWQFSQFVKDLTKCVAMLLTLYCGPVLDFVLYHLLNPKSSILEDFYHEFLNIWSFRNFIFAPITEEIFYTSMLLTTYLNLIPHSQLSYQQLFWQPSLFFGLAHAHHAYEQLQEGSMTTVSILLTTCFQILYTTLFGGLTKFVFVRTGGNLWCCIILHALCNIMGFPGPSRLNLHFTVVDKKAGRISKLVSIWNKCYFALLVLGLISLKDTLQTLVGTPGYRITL
MT1-MMP act inh: blocks activation of human MT1-MMP; P50281; HT1080 RFP-PRO-GFP cells, GFP/RFP ratio fluorescence, overnight; percent of plate control window, DMSO zero; GFP/RFP ratio change, % at 20 µM; 360,000 tested, 0.061% active; AID 651647;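 active means GFP/RFP ratio change of at least 30% with cell ATP level not reduced by more than half and red fluorescence within 50% of control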; further: strong numbers were not always called active
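system = RFP-PRO-GFP reporter HT1080 cells | dosing = 20 µM single dose, 1% DMSO | timing = overnight cell settling, then overnight compound exposure, 37 °C, 5% CO2 | read-out basis = GFP/RFP fluorescence ratio | controls = DMSO and RFP-L50D-GFP cell wells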
eIF4H FP inh: inhibitors of RNA binding by human eIF4H. eIF4H fluorescence polarization binding assay. 290,000 tested, 0.94% active. AID 2012. inhibition, % at 35 µM;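 active means 50% or more with normal probe brightness, or confirmed in later tests; inconclusive means above 50% with abnormal brightness, or retests that disagree; inactive means below 50% or failed in later tests; about a fifth of its hits are not listed in these tables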;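 further: calls also rest on retests at 20 µM and on dose response follow-up; 0% = protein and probe with vehicle and 100% = probe without protein; strong numbers were not always called active; many hits fall short of the cut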
CSC inhib: cancer stem cell inhibition. 300,000 tested, 1.1% active. cancer stem cell-like cells viability, luminescence. inhibition, % at 7.5 µM. AID 2717;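 active means mean at 75% or more and at least half the replicates too; inconclusive means mean and replicates disagree; tested in HMLE shEcad cells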;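 further: 0% = median of negative and 100% = median of positive control wells; the first replicate is given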
Yeast UUG start: yeast start codon fidelity modulation; S. cerevisiae UUG-firefly luciferase reporter, luminescence/redox ratio; activity score, % at 18.7 µM; AID 602363; 350,000 tested, 0.13% active;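 active means replicate mean at a twofold rise or more, about +100% in these data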;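 further: firefly luciferase made from a UUG start codon reports start codon fidelity; reporter light over untreated wells divided by growth signal over untreated wells; some hits fall short of that in this replicate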
PABP FP inh: blocks human PABP binding to poly(A) RNA. P11940. fluorescence polarization. inhibition, % at 35 µM. 290,000 tested, 1% active. AID 2014;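 active means 50% or more with normal probe brightness, or confirmed in later tests; inconclusive means above 50% with abnormal brightness, or retests that disagree; inactive means below 50% or failed in later tests; about a fifth of its hits are not listed in these tables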;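 further: calls also rest on retests at 20 µM and on dose response follow-up; controls were probe without protein and protein plus probe with vehicle; some compounds called inactive have numbers as strong as hits; many hits fall short of the cut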
Target sequence (P11940 whole entry, looked up): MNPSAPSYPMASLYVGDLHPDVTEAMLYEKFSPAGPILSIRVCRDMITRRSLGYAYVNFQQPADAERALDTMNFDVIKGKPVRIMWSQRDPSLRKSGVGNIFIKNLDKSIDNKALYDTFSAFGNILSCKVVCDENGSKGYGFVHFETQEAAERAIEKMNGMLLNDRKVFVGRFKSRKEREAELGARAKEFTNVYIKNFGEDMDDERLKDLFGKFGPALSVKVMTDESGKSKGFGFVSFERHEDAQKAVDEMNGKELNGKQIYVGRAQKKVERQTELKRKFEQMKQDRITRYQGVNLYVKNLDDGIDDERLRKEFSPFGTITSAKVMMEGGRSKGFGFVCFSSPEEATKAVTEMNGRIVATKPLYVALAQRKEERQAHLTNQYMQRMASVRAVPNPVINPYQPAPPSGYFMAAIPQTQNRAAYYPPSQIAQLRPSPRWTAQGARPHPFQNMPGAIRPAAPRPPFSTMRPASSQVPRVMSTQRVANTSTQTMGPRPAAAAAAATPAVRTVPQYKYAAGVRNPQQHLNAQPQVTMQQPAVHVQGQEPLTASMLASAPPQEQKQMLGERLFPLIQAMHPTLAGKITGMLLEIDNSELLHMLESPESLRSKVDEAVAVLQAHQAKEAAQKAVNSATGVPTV
HIV Env fusion: inhibitors of HIV Env-mediated cell fusion; 360,000 tested, 1.1% active; HeLa-JRFL Env/CEM21 cell fusion, luciferase; inhibition, % at 12.3 µM;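 active means mean replicate inhibition score of at least 50 and every replicate individually at or above 50; inconclusive means only one of the two criteria met; inactive means mean below 50 and not all replicates reaching 50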;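 further: 0% = plate neutral controls and 100% = maraviroc near 300 nM; one replicate is shown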
eIF4H FP inh retest: also measured in eIF4H FP inh; calls as there; inhibition, %; compound at 20 µM; confirmation average;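 mean of two retest wells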
PABP FP inh retest: second read-out of PABP FP inh, no call of its own (marks repeat the call); inhibition, %; compound at 20 µM; confirmation repeats;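 mean of two retest wells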
MT1-MMP act inh RFP: recorded beside MT1-MMP act inh, whose call it bears; RFP signal change, %; measured here: RFP expression control read;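 0 = vehicle wells; hits needed this value within 50% of zero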
* hit, by the source's call; i = inactive; ? = inconclusive; nt = not tested or not shown; + = active, no number; [ ] = remark or other dose.

SMILES	Rce1 inhib	MT1-MMP act inh	MT1-MMP act inh RFP	eIF4H FP inh	CSC inhib	Yeast UUG start	PABP FP inh	HIV Env fusion	others
CCCNc1nc(C)cc(-c2cc(C(=O)NCc3ccccc3)on2)n1	i	2	3	0	25	-16	-8	-1
CC(C)N1CC(O)=C(c2nc3ccccc3c(=O)[nH]2)C1=N	i	6	1	-13	-1	nt	-4	nt
CCOc1cc(Cl)c(NC(=O)CC)cc1OCC	i	4	4	2	-6	-2	11	26
CC(C)[C@@H]1N[C@]2(C(=O)Nc3ccccc32)[C@@H]2C(=O)N(c3cccc(C(F)(F)F)c3)C(=O)[C@@H]21	nt	-6	-1	6	-12	24	0	-98
COc1ccc(OC)c(NC(=O)CSc2ccccc2)c1	i	1	-1	-13	-8	0	-3	-4
Cc1nc2ccccn2c1C(=O)/C=C/c1ccc(F)cc1	i	-9	-20	3	27	-15	2	nt
COc1ccccc1OCCCOc1ccc(C)cc1Br	i	-1	0	9	38	nt	2	-14
COc1ccc(C2C(C(N)=O)=C(C)Nc3nc(-c4ccccc4OC)nn32)cc1OC (configuration not stated)	i	-2	1	-2	-9	-19	-6	-10
Cn1c(CC(=O)Nc2ccc(F)cc2)c(Sc2ccccc2)c2ccccc21	i	-1	1	6	8	nt	4	13
COCC1CCCN(Cc2nc(-c3ccc4c(c3)OCO4)no2)C1 (configuration not stated)	i	4	6	-5	nt	-7	-10	-7
OC1(c2ccc3c(c2)OCO3)CCN(Cc2ccc(F)cc2)CC1	i	3	4	-9	-13	-31	-1	-19
COC(=O)c1ccc([N+](=O)[O-])c(CS(=O)(=O)c2ccc(Cl)cc2)c1	i	1	3	-3	2	-7	18	-3
Cc1ccc(Cc2c(-c3ccc(C#N)cc3)nc3ccc(Cl)cn23)cc1	nt	1	-3	nt	nt	-36	nt	-136
CCn1c2ccccc2c2cc(NC(=O)CN3CCCC3)ccc21	i	-1	-4	0	-4	-33	-7	42
CCC1CCCCN1C(=S)Nc1ccc(SC(F)F)cc1 (configuration not stated)	i	3	3	-6	-2	nt	26	-8
Cc1ccc(Nc2nc(-c3c(C)nc4ncccn34)cs2)cc1	i	9	-7	-4	62	-13	13	-284
Cc1cccc2c(=O)c(C(=O)NCCCN3CCOCC3)c[nH]c12	i	4	6	-9	-7	-4	3	nt
Cc1c(CCC(=O)NCCCN2CCCC2=O)c(=O)oc2cc(O)ccc12	i	3	3	-9	14	-4	19	nt
COc1ccc(OC)c(/C=C/C(=O)OCC(=O)Nc2cccc(Oc3ccccc3)c2)c1	i	2	3	1	7	nt	0	-6
CC(C)=N/N=C1/NC(=O)C(CC(=O)Nc2cc(Cl)ccc2C)S1 (configuration not stated)	i	4	9	1	-15	nt	8	-7
COc1ccc(NC(=O)c2sc(Cl)nc2-c2ccccc2)cc1	i	-1	-1	4	16	-1	15	-26
O=C(O)c1ccccc1NS(=O)(=O)c1ccc(NN=Cc2cccc(Cl)c2)c([N+](=O)[O-])c1	nt	6	3	nt	-13	nt	nt	0
COc1ccc(NC(=S)NNC(=O)Cn2nc([N+](=O)[O-])cc2C)cc1	i	-1	2	2	-4	-24	-7	-10
c1ccc(Nc2nc(Nc3ccccc3)nc(N3CCNCC3)n2)cc1	i	4	-7	-4	3	-18	2	0
CCOC(=O)c1csc(-c2ccc([N+](=O)[O-])cc2)n1	i	0	0	-6	-5	nt	5	-41
OC(COc1ccc(-c2ccccc2)cc1)CN1CCOCC1 (configuration not stated)	i	nt	nt	-8	23	nt	-16	nt
C=CCNc1nc(C(=O)OCC(=O)c2ccc(OC)cc2OC)cs1	i	0	0	nt	-2	-12	nt	nt
Clc1cccc(CNc2ccn3nc(-c4ccco4)cc3n2)c1	nt	2	1	nt	nt	-1	nt	-18
O=C1OC(CCl)CN1Cc1ccc([N+](=O)[O-])cc1 (configuration not stated)	i	3	4	nt	-7	nt	nt	4
CC(=O)COc1cc(C)cc2oc(=O)cc(-c3ccccc3)c12	i	-2	-2	-3	8	nt	-5	4
CCc1nnc(NS(=O)(=O)c2ccc(N)cc2)s1	i	1	5	-5	-1	-10	13	29
Cc1ccc(C)c(N(CC(=O)N2CCCCCC2)S(C)(=O)=O)c1	i	2	-2	-5	-3	-9	0	3
COc1ccc(-c2cccc(NC(=O)c3ccco3)c2)nn1	i	4	0	nt	nt	-16	nt	nt
Cc1ccc(C(C)(C)NC(=O)C2CCC(=O)N(Cc3ccccc3F)C2)cc1 (configuration not stated)	i	4	6	12	-3	-5	7	-8
COC(=O)Nc1ccc(S(=O)(=O)N2CCCCCC2)cc1	i	2	7	1	-14	4	-1	-17
Cc1cccc(NC(=O)COc2ccccc2C(=O)NC(C)c2ccccc2)c1 (configuration not stated)	i	0	-6	16	-2	-9	13	nt
CCCc1cc(=O)oc2c3c(c(Cl)cc12)OCN(CCCO)C3	i	nt	nt	?	8	nt	?	nt
CCC(=O)N[C@H]1CC[C@@H](CCn2cc(C3CC3)nn2)O[C@@H]1CO	nt	5	6	nt	nt	4	nt	-19[16.7 µM]
Clc1cccc(Cl)c1/C=N/Nc1c(Cl)cncc1Cl	i	-3	-2	-18	nt	nt	3	-15
Cc1cc(OCCCC(=O)NCCc2nnc3ccccn23)ccc1Cl	nt	6	0	nt	2	-10	nt	nt
COc1cccc(C(=O)c2ncc(C(F)(F)F)cc2Cl)c1	i	1	1	-8	-10	nt	-2	-23
CCN(CC)S(=O)(=O)N1CCC(C(=O)NCCN2CCOCC2)CC1	i	10	3	7	-4	-2	0	3
CC(/C=N/Nc1nc(N2CCCCC2)nc(N2CCCCC2)n1)=C\c1ccccc1	i	-5	-3	15	12	-19	-1	nt
O=C(Cc1ccccc1)Nc1ccnn1C1CCN(Cc2nccs2)CC1	i	0	1	-4	1	-12	1	-5
CCc1cccc(NC(=O)C2CCCN(c3ncnc4c3nc3n4CCCCC3)C2)c1 (configuration not stated)	i	-1	-10	-6	-3	3	4	13
COc1ccc(S(=O)(=O)N2CCN(C(=O)c3c(C)nn(-c4ccccc4)c3C)CC2)cc1	nt	0	0	nt	nt	-2	nt	3
O=C(CCC1CCCCC1)Nc1c2c(nn1-c1ccc(F)cc1)CS(=O)(=O)C2	i	-4	-1	-7	-4	-12	-11	33
NC(=O)c1cc(S(=O)(=O)N2CC=C(c3ccccc3)CC2)cs1	i	2	-10	-7	-3	-7	-4	4
Cc1cc(N2CCN(C)CC2)nc(-c2ccccc2O)n1	i	-6	-1	3	-22	-5	2	13
Cc1ccc(C(c2nnnn2CS(=O)(=O)c2ccc(C)cc2)N2CCN(c3ncccn3)CC2)cc1 (configuration not stated)	i	-9	-13	-4	nt	-3	-6	-248
O=C1Nc2ccc(Br)cc2C1=Nc1cccnc1	i	-1	14	10	30	25	4	3
CCOC(=O)/C=C/C(=O)Nc1ccc(-c2nnc3n2CCCCC3)cc1	i	2	-2	-5	-6	-17	-4	4
CCCc1cc(=O)oc2cc(C)cc(OC(C)C(=O)NCc3cccnc3)c12 (configuration not stated)	i	-4	2	-14	-12	-12	0	20
CCOc1ccc(NC(=O)NCC2CCN(Cc3ccc(F)cc3)CC2)cc1	i	-1	1	-2	5	-6	-4	5
O=C(c1cccc(Br)c1)N1CCN(S(=O)(=O)N2CCCCCC2)CC1	i	2	-2	4	-6	-4	0	18
C#CC(=O)N(c1ccc(OC)cc1OC)C(C(=O)NC1CCCC1)c1cccs1 (configuration not stated)	nt	-43	-44	2	-2	nt	6	109*
O=C(Nc1ccc(F)cc1F)c1cc(-c2ccc3c(c2)OCO3)on1	i	5	4	0	5	-4	3	-3
C=CCN1C(=O)C(CC(=O)O)SC1=Nc1ccc(C)cc1 (configuration not stated)	i	-1	0	2	-10	-7	6	18
COc1ccc(S(=O)(=O)NCc2cccs2)cc1	i	5	3	6	-4	-7	3	-29
Nn1c(SCC(=O)NC2CCCCC2)nnc1-c1ccc(Cl)cc1	i	-2	-1	0	0	nt	3	4

Next records:
SMILES	Rce1 inhib	MT1-MMP act inh	MT1-MMP act inh RFP	eIF4H FP inh	CSC inhib	Yeast UUG start	PABP FP inh	HIV Env fusion	others
COC(=O)c1c(NC(NC(=O)CC(C)C)C(Cl)(Cl)Cl)sc2c1CCC2 (configuration not stated)	i	-33	-28	0	-12	-7	-9	3
O=S(=O)(NC1Cc2ccccc2C1)c1ccccc1	i	3	3	1	2	-3	2	13
Cc1nn(Cc2cccc(F)c2)c(C)c1NC(=O)c1c([N+](=O)[O-])c(C)nn1C	i	-1	5	-1	1	-17	-3	-105
COC(=O)CCCNC(=O)c1ccccn1	i	-2	0	1	-5	-18	12	7
Cc1ccc2cc(CN(CCCO)S(=O)(=O)c3cccc4nsnc34)c(=O)[nH]c2c1	i	-2	-2	-6	nt	-1	-2	-28
CCCC(=O)NC(=S)Nc1cccc(-c2nc3ncccc3o2)c1	i	10	8	2	-10	nt	8	20
COc1ccc(-c2oc3ccccc3c(=O)c2OC(=O)c2ccc(C)cc2)cc1	i	5	3	-21	20	-9	-15	nt
Oc1ccccc1/C=N/Nc1ncc(Br)cn1	i	-3	-7	8	8	-19	1	-22
CCOc1ccccc1NC(=O)c1cc(Cl)ccc1NC(=O)c1ccco1	i	0	0	1	-11	nt	0	-75
Cc1cc(C)cc(C(=O)NC(CC(N)=O)c2ccc(N3CCN(C)CC3)c([N+](=O)[O-])c2)c1 (configuration not stated)	i	5	6	-9	-7	10	-5	9
CC(C)COc1ccc(N)cc1OCC(C)C	i	9	6	35	1	nt	-4	5
CCc1nc2ccc(C(=O)NCCCn3ccnc3)cn2c1N(C)Cc1cc2ccccc2s1	nt	-1	-4	nt	nt	-16	nt	20
CN(C(=O)CN1C(=O)NC(C)(c2cccc(Br)c2)C1=O)C1CCCCC1 (configuration not stated)	nt	-3	-5	nt	-14	-4	nt	nt
CNC(=S)NNC(=O)c1ccccc1Br	i	1	-1	-2	-10	-21	-10	nt
Cc1ccc(CCNC(=O)c2coc3nc4ccccc4nc23)cc1	i	-9	13	73	-1	-18	51*	nt	eIF4H FP inh retest=39;PABP FP inh retest=50*

Next section (3 carried over from the part before).
SMILES	Rce1 inhib	MT1-MMP act inh	MT1-MMP act inh RFP	eIF4H FP inh	CSC inhib	Yeast UUG start	PABP FP inh	HIV Env fusion	others
CN(C(=O)CN1C(=O)NC(C)(c2cccc(Br)c2)C1=O)C1CCCCC1 (configuration not stated)	nt	-3	-5	nt	-14	-4	nt	nt
CNC(=S)NNC(=O)c1ccccc1Br	i	1	-1	-2	-10	-21	-10	nt
Cc1ccc(CCNC(=O)c2coc3nc4ccccc4nc23)cc1	i	-9	13	73	-1	-18	51*	nt	eIF4H FP inh retest=39;PABP FP inh retest=50*
CCOc1ccc(-n2cnnn2)cc1S(=O)(=O)NCc1ccccc1	i	6	7	-4	-9	-7	-2	nt
O=C(NCc1cccnc1)c1cnc2sccn2c1=O	i	-2	1	18	0	-22	3	7
Cn1c(=O)[nH]c(=O)c2c1nc(NCCCO)n2CCOc1ccccc1	i	0	2	-6	nt	-8	3	-3
CCN1CCCn2c1nc1c2c(=O)n(C)c(=O)n1C	i	-1	3	-12	-3	nt	5	-8
CC(=O)OC[C@H]1COc2ccc3ccccc3c2[C@H]1N(C)C(C)=O	i	-2	2	-11	-6	-7	-18	nt
COc1ccccc1-c1nnc(N)s1	+	1	2	-12	2	nt	0	-23
